# Source: PubChem
# Six1-Eya2 blk: inhibitors of human Six1/Eya2 interaction. Q15475+O00167. AlphaScreen GST-Six1/His-Eya2 binding, biochemical; active compounds read low; control for the full effect not named in the record. activity change, % (no concentration beside the values). 0.56% of 360,000 active; in the data active = activity change below about -65%; inconclusive = about -30% to -65%; inactive = above about -30%; further: on the % scale 0 is the no-effect control and ±100 the full control effect
# Target sequence (O00167 whole entry, looked up): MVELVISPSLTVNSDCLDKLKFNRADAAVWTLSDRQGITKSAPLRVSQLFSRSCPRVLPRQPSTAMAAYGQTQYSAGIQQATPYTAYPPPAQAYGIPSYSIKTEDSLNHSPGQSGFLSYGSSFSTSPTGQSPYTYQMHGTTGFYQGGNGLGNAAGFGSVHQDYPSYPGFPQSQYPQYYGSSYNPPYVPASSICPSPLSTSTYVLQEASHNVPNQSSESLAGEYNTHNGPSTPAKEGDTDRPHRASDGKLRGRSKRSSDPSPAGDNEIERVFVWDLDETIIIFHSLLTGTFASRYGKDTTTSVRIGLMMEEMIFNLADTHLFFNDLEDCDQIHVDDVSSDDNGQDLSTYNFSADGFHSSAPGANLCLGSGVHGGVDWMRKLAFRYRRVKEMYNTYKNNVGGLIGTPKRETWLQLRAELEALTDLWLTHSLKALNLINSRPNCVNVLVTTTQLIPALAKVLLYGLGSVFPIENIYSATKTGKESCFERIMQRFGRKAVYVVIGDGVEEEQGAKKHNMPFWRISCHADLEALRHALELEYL
# Target sequence (Q15475 whole entry, looked up): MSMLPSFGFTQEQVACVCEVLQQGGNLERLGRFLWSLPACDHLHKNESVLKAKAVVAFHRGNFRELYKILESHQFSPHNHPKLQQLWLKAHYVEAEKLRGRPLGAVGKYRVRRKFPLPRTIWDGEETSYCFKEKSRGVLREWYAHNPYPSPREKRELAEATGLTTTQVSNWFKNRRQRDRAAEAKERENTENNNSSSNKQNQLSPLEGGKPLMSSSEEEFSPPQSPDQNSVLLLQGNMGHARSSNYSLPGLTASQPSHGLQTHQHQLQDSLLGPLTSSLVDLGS
#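 AlphaScreen with GST-Six1 and His-Eya2 (5X mix: 250 nM and 500 nM), glutathione donor and nickel acceptor beads; buffer 50 mM Tris pH 8.0, 300 mM NaCl, 1 mM TCEP; 1 h at 37 C in the dark.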
# TRPML1 inh: human mucolipin-1 channel inhibition | 0.02% of 390,000 active | activity change, negative = inhibition, % (test concentration not listed) | TRPML1-inducible cells, Ca2+ dye fluorescence, FDSS; active compounds read low; inhibition of EC80 agonist-evoked calcium signal; in the data active means activity change below about -50%; inconclusive means about -30% to -50%; inactive means above about -30%;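 further: stimulus is agonist 54-4 at its EC80 concentration; on the % scale 0 is the no-effect control and ±100 the full control effect; compound concentration not given in the record; the text of the record puts the active cut at -80%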
#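 TRPML1-DL cells, Tet-induced overnight (~16 h, 37 °C) at 1,500 cells/well, were loaded with Ca8 no-wash dye plus quencher for 45-90 min at room temperature. Compounds were pinned during FDSS kinetic reading; agonist 54-4 at EC80 (4 uM final) then added.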
# TRPML1 ag: activates the human TRPML1 channel. Q9GZU1. TRPML1-expressing cells, Ca2+ dye fluorescence, FDSS; host cell line not named in the record; reference of the full effect not given here. activation, % (no concentration beside the values). 0.12% of 410,000 active; in the data active = activation above about 50%; inconclusive = about 30% to 50%; inactive = below about 30%; further: 0% is about no effect; the text of the record puts the active cut at 80%
#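 Tetracycline-induced TRPML1-DL cells are seeded and incubated overnight before loading with a no-wash Ca2+ dye and quencher. Agonist activity is taken from the 110 s fluorescence read following compound pin-transfer on an FDSS, before EC80 54-4 challenge.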
# PINK1 modulator: changes PINK1 expression. PINK1 immunofluorescence, high-content cytometry, 24 h. Potency, µM (highest dose often 76.6 µM), for inactives: top-dose activation (PINK1 increase), actives largely listed as activators. 0.2% of 410,000 active. AID 624263; active = well fitted activation curve with a large enough effect; inconclusive = small, poorly fitted or top-dose-only effect; inactive = flat fitted curve, though single readings scatter; cell line not stated here;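 further: potency means the concentration at half of the fitted maximal effect; % of control where 0% means no effect; nearly all actives have a fitted effect of over 65% in size; a mitochondrial uncoupler was the plate control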
#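 Readout is PINK1 immunofluorescence, quantified alongside mitochondrial, cell and nuclear markers by laser-scanning microplate cytometry. Cells from a stable line were exposed to compound titrations (5 concentrations) for 24 hours, with CCCP controls.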
# CtBP-E1A blk: blocks the CtBP interaction with E1A; 0.49% of 340,000 active; activity change, % (no concentration beside the values); AlphaScreen GST-E1A/His-CtBP binding, 1536-well; active compounds read low; control for the full effect not named in the record; AID 651724; in the data active means activity change below about -65%; inconclusive means about -30% to -65%; inactive means above about -30%; further: on the % scale 0 is the no-effect control and ±100 the full control effect
#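 In 5 uL wells, 23 nL compound meets equimolar GST-E1A and His-CtBP (5X stock 125 nM each) for 2 h, 37 °C. Beads (5X, 50 ug/mL) then 1 h, 37 °C, dark.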
# D2 agonist: activates the human D2 dopamine receptor; 0.084% of 360,000 active; activation, % (test concentration not listed); DiscoveRx PathHunter D2 beta-arrestin, luminescence, 90 min; 100% = 57 uM dopamine signal; in the data active = activation above about 40%; inconclusive = about 15% to 40%; inactive = below about 15%; further: compound concentration not given in the record; the text of the record calls up to 30% inactive
#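 DiscoveRx PathHunter D2 beta-arrestin cells (2,100/well) attached overnight, then compound-stimulated 90 min at 37 C in HBSS/10 mM HEPES/0.1% Tween-20 buffer; beta-galactosidase complementation read by luminescence after 1 h at ambient temperature. Dopamine 57 uM final (EC100) as control.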
# * = called active by the depositor; ? = inconclusive; . = no result given; & = joins results of further samples; [ ] = another dose, or the depositor's remark.
SMILES,Six1-Eya2 blk,TRPML1 inh,TRPML1 ag,PINK1 modulator,CtBP-E1A blk,D2 agonist
CC1(C(=O)NS(=O)(=O)c2cccs2)CCN1C(=O)C1CCCCC1 (stereo unspecified),11,.,-0.4,-0.2%,12,-3.7
Cc1ccc(S(=O)(=O)N2CCN(S(=O)(=O)c3ccc(C)cc3)C2c2ccccc2)cc1,0,-16,-0.3,5.5%[38.3 µM],5,-2.8
O=c1oc2ccccc2nc1/C=C(O)/C=C\c1ccccc1,-9,-9,-0.3,-1.5%,0,0.7
COc1ccc(OC)c(/C=N/NC(=O)c2cc3c(OC)c(OC)ccc3[nH]2)c1,-2,6,1.4,2.0%,.,?
Nn1c(SCC(=O)Nc2ccccc2Oc2ccccc2)nnc1C1CC1,5,21,0.0,2.2%,-1,-5.6
COc1ccc(Cl)cc1C(=O)N1CCN=C1SC,4,-6,-0.4,2.3%,11,-0.5
CCOC(=O)C1(Cc2cccc(OC)c2)CCN(Cc2cccc3c2OCO3)CC1,-7,13,1.1,1.3%,-9,-2.7
O=C(CSc1nnc(NC(=O)c2ccccc2[N+](=O)[O-])s1)NC1CCCC1,-9,33,0.1,-0.2%,0,-1.2
CCCOc1ccc(C2C(=O)N(C3CCCCCC3)CC(=O)N2Cc2ccco2)cc1OC (stereo unspecified),1,16,0.8,4.3%,-5,0.2
CN(C)S(=O)(=O)c1cccc(N=c2scc(-c3ccc4c(c3)NC(=O)CO4)n2CC2CCCO2)c1 (stereo unspecified),?,-9,0.5,3.4%,-18,3.6
COc1ccc(Nc2nc(NCC3CCCO3)nc(N)c2[N+](=O)[O-])cc1 (stereo unspecified),-15,-3,0.1,0.8%,.,-5.3
CCc1cc(=O)oc2cc(C)cc(OCC(=O)NCCCn3ccnc3)c12,-1,4,-1.1,-1.7%,-13,0.5
O=C(Cc1ccc(Cl)cc1)N1CCN(c2ccc(F)cc2)CC1,13,13,1.2,0.8%,0,1.4
Cc1cc(C(=O)Nc2ccncc2)c(C)o1,4,5,0.2,1.2%,-13,-0.6
COc1ccc(C(=O)NCCNC(=O)c2ccccn2)cc1,6,-4,-0.3,-0.5%,0,-1.6
Cc1cc(NC(=O)CSc2nc(Cc3ccc(O)cc3)c(C)[nH]2)no1,3,-54*,0.8,0.6%,-5,0.2
CCCN1CN=C(Nc2nc3ccccc3o2)NC1,2,33,0.1,13%,5,2.3
Cc1cc(C(=O)OCC(=O)N2CC(C)OC(C)C2)ccc1[N+](=O)[O-] (stereo unspecified),-8,9,3.5,0.1%,.,-2.7
Cc1ccccc1OCCCc1c(C)n[nH]c1C,-7,-8,2.4,1.1%,-11,1.4
Cc1cc(C)cc(NC(=O)c2cc3c(=O)n4ccccc4nc3s2)c1,7,10,1.3,2.5%,9,-5.3
CN(CC(=O)Nc1ccc(SC(F)F)cc1)C1CCCCC1,0,7,0.9,5.2%,0,-1.9
Nc1ccc(S(=O)C(F)(F)F)cc1 (stereo unspecified),9,8,-0.7,5.4%,5,-2.6
CC(C)CNc1ncnc2c1ncn2[C@H]1CN(Cc2ccc(C(=O)O)cc2)C[C@@H](CO)O1,16,.,0.2,1.1%,-23,-1.1
Cc1ccc(S(=O)(=O)N(C)CC(=O)NNC(=O)Cc2ccccc2F)cc1,2,-4,0.1,0.8%,9,-2.0
CN(C)c1nc(NS(=O)(=O)c2ccc(Cl)cc2)nc(N(C)C)n1,-2,-8,0.1,0.6%[38.3 µM],-7,-2.0
O=c1ccn(Cc2ccccc2)c(SCc2ccccc2)n1,8,2,0.9,3.3%,3,-3.2
CC(C)(C)NC(=S)N1CCC(C(=O)c2ccc(Cl)cc2)CC1,6,-1,-0.6,0.4%,-5,1.8
COc1ccc(/C(N)=N/OC(=O)CSc2ccccc2)cc1,55,-8,0.4,0.4%,43,-1.2
COc1ccccc1NC(=O)CCN1CCCCCC1,-9,9,0.6,-5.0%[38.3 µM],-21,0.9
CC1(C)CC(O)CC(C)(C)N1CC(O)COCc1ccccc1 (stereo unspecified),0,3,-0.6,-0.9%,-3,-11
Cc1ccccc1NC(=O)Cn1c(=O)n(Cc2ccc3c(c2)OCO3)c(=O)c2ccc(C(=O)NC3CCCCC3)cc21,.,8,0.8,-4.0%,.,.
CSc1cccc(NC(=O)C2(S(=O)(=O)c3ccc(C)cc3)CC2)c1,1,-10,2.8,-0.4%,6,-0.5
COc1ccc(NC(=O)CSc2nnc(Cc3cccn3C)n2-c2ccc(F)cc2)cc1OC,-11,-6,0.6,2.8%,-7,-1.3
CC(C)CC1C(=O)N(Cc2cn(CCC3OCCCO3)nn2)CCS(=O)(=O)N1Cc1ccc(-c2ccc(Cl)cc2)cc1 (stereo unspecified),-7,9,-0.4,5.7%,3,-3.5
Cc1ccsc1C(=O)C1CCCN(Cc2cn(C)nc2-c2ccccc2)C1 (stereo unspecified),-1,-12,-0.6,-0.9%,-3,-5.1
COc1ccc(NC(=O)CN(C)CC(=O)c2c(C)[nH]c3ccccc23)cc1,-4,-11,1.2,6.0%,14,1.0
COc1ccc(-n2c(=O)c3ccc(C(=O)NCc4ccc(C)cc4)cc3n(CC(=O)Nc3ccc(C)cc3)c2=O)cc1,.,40,1.9,-4.9%,.,.
O=C(Cn1nnnc1-c1ccccc1F)Nc1ccc(F)c(F)c1,.,-14,1.8,-1.4%,.,.
CC(=O)Oc1ccc(C(=O)Nc2cccc(NC(=O)c3ccco3)c2)cc1,-17,-2,-0.4,2.3%,-11,0.0
COCCCn1c(O)c(/C=C2\N=C(C#N)C(=Nc3ccc(C)cc3)O2)sc1=S,-20,3,5.4,?,-12,-6.3

# 4 entries from above, arranged by their value in PINK1 modulator, lowest first:
smiles,PINK1 modulator
COc1ccc(-n2c(=O)c3ccc(C(=O)NCc4ccc(C)cc4)cc3n(CC(=O)Nc3ccc(C)cc3)c2=O)cc1,-4.9%
Cc1ccccc1NC(=O)Cn1c(=O)n(Cc2ccc3c(c2)OCO3)c(=O)c2ccc(C(=O)NC3CCCCC3)cc21,-4.0%
O=c1ccn(Cc2ccccc2)c(SCc2ccccc2)n1,3.3%
Nc1ccc(S(=O)C(F)(F)F)cc1 (stereo unspecified),5.4%

# (list continues)
SMILES,Six1-Eya2 blk,TRPML1 inh,TRPML1 ag,PINK1 modulator,CtBP-E1A blk,D2 agonist
O=C(CCCCCn1c(=S)[nH]c2ccccc2c1=O)NCc1ccc2c(c1)OCO2,-12,9,0.7,9.7%,-12,-2.3
Cc1nn(-c2ccc(F)cc2)c(Cl)c1/C=C(\CC(=O)O)c1nc2ccccc2s1,-7,-14,-0.2,1.4%[38.3 µM],-16,-2.1
Cc1ccccc1C(=O)/C=C1/c2ccccc2CC(C)(C)N1C,-14,7,0.6,21%[38.3 µM],6,0.2
COc1ccccc1-n1c(CNC(=O)c2ccccc2)nnc1SCC(=O)Nc1nnc(C)s1,0,15,-0.5,0.7%,-1,3.7
CCCN1Cc2cccc(C(=O)NCCc3ccccc3)c2C1=O,5,-14,1.6,0.1%,4,0.2
CN(CC1CCCO1)S(=O)(=O)c1ccc(C(=O)Nc2nccs2)cc1 (stereo unspecified),2,7,-0.5,0.7%,.,-4.8
CC12CCC(C)(O1)C1C(=O)N(c3nccs3)C(=O)C12 (stereo unspecified),6,0,0.2,0.7%,9,5.4
O=C(Nc1cccnc1)c1cnn2c(C(F)F)cc(C3CC3)nc12,?,-17,0.1,0.5%,2,-3.0
CC(=O)N/C(=C\c1ccc(F)cc1)C(=O)NC(C(=O)O)C(C)C (stereo unspecified),0,-7,0.8,-1.9%,9,-2.0
Cc1cc(C)cc(-n2c(C)cc(C(=O)CSc3nnnn3C)c2C)c1,-27,85,0.1,9.1%,-9,-0.2
O=C1CSC(c2ccccc2)N1c1nc(-c2ccc(Cl)cc2Cl)cs1 (stereo unspecified),21,-13,0.0,7.5%,0,-0.3
Cc1ccc(S(=O)(=O)NCCOCCNS(=O)(=O)c2ccc(C)cc2)cc1,1,14,1.5,0.1%,-9,2.1
Cc1ccc(CN2CCC(n3nccc3NC(=O)CCOc3ccccc3)CC2)o1,-2,8,0.1,2.4%,5,-2.8
O=C(NCCc1cccc(F)c1)C1CCC(=O)N(C2CCCCCC2)C1 (stereo unspecified),-1,?,0.6,-0.3%,6,5.1
Cc1cc(C)c(NC(=O)/C(=C/c2ccco2)c2ccccc2)c(C)c1,-6,13,1.5,2.2%,-7,-3.2
CCOc1ccc2ccccc2c1C(=O)N[C@@H]1C(=O)N2[C@@H]1SC(C)(C)[C@@H]2C(=O)O,0&-3,4&1,0.4&0.4,1.6%&0.9%,-3&-18,-3.0&-6.1
COC(=O)c1ccccc1NC(=O)/C=N/O,-2,2,-0.4,-0.2%,.,-2.5
Cc1cc(N=Nc2ccc(Cl)cc2)cc(CN2CCOCC2)c1O,?,-6,-0.1,25%,?,-2.0
Cc1ccc(CCNC(=O)C2CC(=O)N(CCc3ccc(C)cc3)C2)cc1 (stereo unspecified),.,8,1.6,-4.7%,.,.
COc1ccc(/C(=N\O)c2ncc(C(F)(F)F)cc2Cl)cc1,-2,7,1.7,2.6%,1,-2.5

# Printed as active in TRPML1 inh (from the list above):
mol	Six1-Eya2 blk	TRPML1 inh	PINK1 modulator	CtBP-E1A blk	D2 agonist
Cc1cc(NC(=O)CSc2nc(Cc3ccc(O)cc3)c(C)[nH]2)no1	3	-54*	0.6%	-5	0.2

# Other structures
SMILES,Six1-Eya2 blk,TRPML1 inh,TRPML1 ag,PINK1 modulator,CtBP-E1A blk,D2 agonist
CC(=O)c1cccc(N(CC(=O)Nc2ccc(F)cc2F)S(C)(=O)=O)c1,23,0,-0.4,10%[38.3 µM],39,-2.2
CCOC(=O)c1cnc2ccc(C)cc2c1NCCN1CCOCC1,1,.,.,-0.1%,0,-3.1
COc1ccc(NC(=O)c2ccccc2O)c(OC)c1,0,-3,0.2,0.7%[38.3 µM],5,-1.4
COC(=O)c1cc(S(=O)(=O)Nc2nn(C)c3cccc(F)c23)oc1C,7,14,0.4,2.6%,-5,-4.4
O=C(COc1ccc(Cl)cc1)NNC(=O)c1cccnc1,6,-14,-0.5,-0.7%,2,-4.1
COc1ccc(CN2CCNC(=O)C2CC(=O)NCc2ccc(C)s2)c(OC)c1 (stereo unspecified),4,1,0.2,1.3%,2,-0.2
CCC(C(=O)OCC(=O)NC1CCS(=O)(=O)C1)c1ccccc1 (stereo unspecified),-4,1,-0.3,-1.0%,-3,-4.2
CC(=O)C1=C(O)C(=O)N(CCNCCO)C1c1ccccc1 (stereo unspecified),41,-5,0.3,0.1%,5,-5.2
O=C(COc1cccc(C(F)(F)F)c1)Nc1ccccc1N1CCCCC1,8,-12,0.0,15%,5,0.7
COc1ccc(-c2c(C#N)c(SCC(=O)Nc3ccccc3C)nc(C)c2C(=O)Nc2ccc(Cl)cc2)cc1,.,0,0.1,0.0%,.,.
N/C(=N\OC(=O)c1ccccc1Cl)c1ccncc1,4,-2,0.3,-1.1%,10,?
COc1ccc(S(=O)(=O)N(C)CC(=O)N2CCCCCC2)cc1OC,8,3,-0.6,-2.6%,-5,-0.8
Cc1ccc(C(C)C)c(OCCN2C(=O)NC(C)(C)C2=O)c1,4,-15,1.7,-0.5%,-10,-1.0
